Assay outcomes from PubChem BioAssay.
KCNQ2 block – KCNQ2 potassium channel inhibitors, primary screen, cell-based, CHO-K1, FluxOR thallium flux, B-score (AID 2156). B-score at 10 µM. Potassium voltage-gated channel subfamily KQT member 2 (Rattus norvegicus), O88943. 1.1% of 310,000 active. 20 min; hits give low values; only compounds with negative scores are shown here; some inactives read as strong as hits;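 active = fluorescence ratio B-score at most minus 3 library SDs, with starting brightness B-score within 2 library SDs, cut at about -5.5 in these data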
Target sequence (O88943 whole entry, looked up): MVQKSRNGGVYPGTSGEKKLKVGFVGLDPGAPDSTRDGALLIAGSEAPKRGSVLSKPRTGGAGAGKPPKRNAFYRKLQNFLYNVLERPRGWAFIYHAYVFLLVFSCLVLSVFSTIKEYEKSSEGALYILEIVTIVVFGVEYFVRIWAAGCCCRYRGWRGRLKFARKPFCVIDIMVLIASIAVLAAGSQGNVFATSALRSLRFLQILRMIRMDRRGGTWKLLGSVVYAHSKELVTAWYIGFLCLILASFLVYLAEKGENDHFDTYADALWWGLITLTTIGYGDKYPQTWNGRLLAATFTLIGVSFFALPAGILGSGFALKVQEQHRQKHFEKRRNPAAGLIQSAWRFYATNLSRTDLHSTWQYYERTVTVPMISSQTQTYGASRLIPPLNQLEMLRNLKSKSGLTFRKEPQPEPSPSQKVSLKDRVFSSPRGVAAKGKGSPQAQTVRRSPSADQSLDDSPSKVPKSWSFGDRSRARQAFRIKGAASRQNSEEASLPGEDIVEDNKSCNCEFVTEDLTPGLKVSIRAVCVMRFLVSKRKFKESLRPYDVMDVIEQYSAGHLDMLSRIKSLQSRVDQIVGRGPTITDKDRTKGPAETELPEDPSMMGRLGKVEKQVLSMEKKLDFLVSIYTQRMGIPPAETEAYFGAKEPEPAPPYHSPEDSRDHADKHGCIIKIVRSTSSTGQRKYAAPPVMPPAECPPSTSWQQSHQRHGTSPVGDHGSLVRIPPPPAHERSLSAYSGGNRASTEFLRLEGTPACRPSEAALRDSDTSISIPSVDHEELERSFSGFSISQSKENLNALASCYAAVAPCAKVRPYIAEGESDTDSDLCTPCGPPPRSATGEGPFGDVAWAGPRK
KCNQ2 block baseline – further read-out of KCNQ2 block, marked with its call; B-score; measured here: initial fluorescence intensity artifact check;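 brightness before thallium and not channel activity; 0 = typical well and far values either way flag optical interference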
* marks the source's active call; other numbers are inactive results; i = inactive.

SMILES	KCNQ2 block	KCNQ2 block baseline
O=C(CN1N=C(c2ccccc2)CCC1=O)NCc1ccccc1	i	0.05
CN1CCCN(Cc2cccc3ccccc23)CC1	i	3.5
O=S(=O)(NCc1ccccn1)c1ccc(Br)s1	i	-1
Cc1oc(=O)c(NC(=O)c2ccc(Cl)cc2)cc1C(=O)c1ccccc1	i	-0.32
CC(=O)Nc1c(C)ccc(CNC(=O)COc2ccc(F)cc2)c1C	i	2.5
O=C(Nc1ccc(N2CCN(C(=O)c3cccs3)CC2)cc1)c1ccco1	i	-0.85
Cc1cccc(NC(=O)CN2C(=O)S/C(=C\c3ccc(-c4cccc(C(=O)O)c4C)o3)C2=O)c1	i	-0.57
Cc1ccccc1S(=O)(=O)Nc1nc2ccccc2nc1NCCO	i	1.1
CC1(C)NC(=O)N(CC(O)COc2ccc(-c3ccc(C#N)cc3)cc2)C1=O (configuration not stated)	i	1.3
CCCSC1=N/C(=C/c2ccsc2)C(=O)N1c1ccccc1	i	0.21
Cc1ccc(C2N(c3ccc(Cl)c(Cl)c3)C(=O)C3CCCN32)o1 (configuration not stated)	i	2.3
C/C=N/N(c1ccccc1)c1ccccc1	i	1.7
O=C(NCCc1ccccc1)c1cnc2sccn2c1=O	i	0.26
COc1ccc(C[C@H]2CN3C(=NC[C@@H]3C(C)C)N2C[C@H](C)NC(=O)c2ccc(C)c(Br)c2)cc1	i	-0.41
CCOC(=O)C1=C(C)N=C2SC(C(=O)OC)=CC(=O)N2C1c1ccc(F)cc1 (configuration not stated)	i	0.11
Cc1cc(C(=O)NC2=NCCS2)c2ccccc2n1	i	1.3
CC1Cc2ccccc2N1C(=O)c1cc2sccc2n1Cc1ccc(F)cc1 (configuration not stated)	i	-0.02
CS(=O)(=O)N(CC(=O)Nc1ccc(CC#N)cc1)c1ccc(C23CC4CC(CC(C4)C2)C3)cc1	i	-0.92
CCc1ccc(N2C(=O)C3C4CCC(C4=C(C)C)C3C2=O)cc1 (configuration not stated)	i	1.5
Cc1cc(Cl)c(S(=O)(=O)N2CCSCC2)cc1OCC(N)=O	i	0.03
COc1ccc(CNC(=O)[C@@H]2CC=C[C@@H]3CCN(C4CCCCC4)C(=O)[C@@H]32)cc1	i	-0.22
CCOC1=C/C(=C/c2c(N)n3nc(CC(=O)N4CCCC4)sc3nc2=O)C=CC1=O	i	3.2
O=C(c1nn2c(C(F)(F)F)cc(-c3ccco3)nc2c1Br)N1CCCc2ccccc21	i	-0.81
CCOc1ccc(CNC(=S)N/N=C/c2cccnc2)cc1	i	3.1
CCC(=O)N/C(=N/c1nc(C)cc(C)n1)Nc1ccccc1	i	0.25
Cc1c(-c2ccc(O)cc2)nc2nc(-c3ccccc3)c(-c3ccccc3)nn12	i	52
COc1cccc2c1Oc1ncccc1N(C(=O)CCC(=O)NCc1ccccc1Cl)C2	i	-0.26
O=C(NCCc1ccccc1)c1ccc(-c2ccc(F)cc2)o1	-5.8*	-1.1*
COc1ccc2[nH]c3c(N4CCc5ccccc5C4)ncnc3c2c1	i	-0.21
Cc1cc(C)cc(N(CC(=O)N2CC=C(c3ccccc3)CC2)S(=O)(=O)c2c(C)noc2C)c1	i	0.06
Cc1cc(C)n(CC(C)NC(=O)CCc2nnc(CCc3ccccc3)o2)n1 (configuration not stated)	i	-0.33
COc1ccc(CCNC(=O)Cn2cccc2C(=O)c2ccccc2)c(OC)c1	i	2
Cc1ccc(C(=O)N2CCN(c3ccccn3)CC2)cc1[N+](=O)[O-]	i	-0.86
CCCC(=O)Nc1ccc(NC(=O)CCc2ccccc2)cn1	i	-1.4
O=C(CNC(=O)c1ccccc1)OCc1nnc(-c2ccccc2)o1	i	1.9
O=C(c1ccc(C(F)(F)F)n(Cc2ccc(Cl)cc2)c1=O)N1CCOCC1	i	0.54
Cc1cccc(CNC(=O)C2CCC(=O)N(C3CCCC3)C2)c1 (configuration not stated)	i	0.58
Cc1ccc(NC(=S)N2CCCC2)cc1	i	0.66
O=C(CSc1ncnc2ccccc12)c1ccco1	i	-2.1
COc1cc(/C=C2\SC(=S)N(NC(=O)c3ccc(O)cc3)C2=O)ccc1O	i	2.1
CC(C)CCNC(=O)c1ccccc1NC(=O)C1=CSCCO1	i	-0.52
Nc1ccc(C(=O)OCCCc2nc3ccccc3[nH]2)cc1	i	3.3
Cc1ccc(C)c(OCC(=O)NC2CCCCCC2)c1	i	-0.15
CC(C)CN(C(=O)CN1CCN(c2ccc(O)cc2)CC1)c1c(N)n(CC(C)C)c(=O)[nH]c1=O	i	0.02
COc1ccc(NC(=S)N2CCN(C(=O)C3CCCO3)CC2)c(OC)c1 (configuration not stated)	i	1.6
COc1ccc(OC)c(NC(=O)c2ccc(OCC(=O)N3CCOCC3)c(OC)c2)c1	i	-0.11
C=CCSC1=N/C(=C\C=C\c2ccco2)C(=O)S1	i	0.18
O=C(CCn1cncn1)N1CCCC(N2CCN(c3cccc(C(F)(F)F)c3)CC2)C1 (configuration not stated)	i	-1.3
COc1cccc(CNc2ccccc2O)c1OCc1ccccc1F	i	-0.02
CCOC(=O)N1CCN(c2ccc(Cl)c(Cl)c2)CC1	i	-0.29
c1ccc(CN2CCOCCOCCOCCOCC2)cc1	i	0.52
O=c1[nH]nc(-c2ccc(F)cc2)cc1Cc1ccccc1	i	0.28
O=c1c2c(-c3ccccc3)csc2nc2n1CCC2	i	1.1
COc1cccc(C2NC(CCSC)(C(=O)O)C3C(=O)N(C(C)C)C(=O)C23)c1O (configuration not stated)	i	0.46
CCOc1ccc(Br)cc1/C=N/O	i	1.8
CCC(CC)c1nnc(NC(=O)CCc2ccccc2OC)s1	i	-0.24
S=c1[nH]nc(-c2ccc3ccccc3n2)n1Cc1ccccc1	i	0.95
CCCCn1c(CN2CCN(C(=O)OCC)CC2)nc2c1c(=O)n(C)c(=O)n2C	i	-0.56
Cc1ccc(S(=O)(=O)N2CCC(=O)N(C(COCc3ccc(Cl)cc3)Cc3ccccc3)CC2)cc1 (configuration not stated)	i	-0.94
O=C(CC1C(=O)NCCN1Cc1cccc(Oc2ccccc2)c1)NCCc1ccncc1 (configuration not stated)	i	0.03

Other results.
SMILES	KCNQ2 block	KCNQ2 block baseline
C=CCOC(=O)C1=C[C@H](c2coc3ccccc3c2=O)C[C@H](OCCCCO)O1	i	0.73
COc1ccccc1C(=O)Nc1cc2cc(Br)ccc2oc1=O	i	1.6
CSc1nnc(C2CCN(CC(=O)Nc3ccccc3N3CCOCC3)CC2)n1C(C)C	i	-0.61
O=C1C2C3C=CC(C4CC34)C2C(=O)N1/N=C/c1ccc(-c2cccc([N+](=O)[O-])c2)o1 (configuration not stated)	i	-0.99
CC1=C(C)SC(=C(C#N)c2nnc(N3CCOCC3)n2-c2ccccc2)S1	i	1.6
CCCC1=C(C(=O)OCC)C(c2cc(Cl)cc(OC)c2OCc2ccccc2)NC(=O)N1 (configuration not stated)	i	0.51
CC1CCN(S(=O)(=O)c2ccc3c(c2)N(CC(=O)NCCCN2CCCC(C)C2)C(=O)CS3)CC1 (configuration not stated)	i	-1.2
COc1ccc(C=O)cc1OC(=O)C1(C)Cc2ccccc2C(=O)O1 (configuration not stated)	i	-1.5
NS(=O)(=O)c1ccc(NC(=O)CSc2cn[nH]n2)cc1	i	-0.01
CCc1cc(=O)oc2cc(OCC(=O)NCCCN3CCOCC3)c(Cl)cc12	i	-0.18
CCCC(C(=O)NC(C)(C)C)N(CC1CCCO1)C(=O)CNS(=O)(=O)c1ccc(F)cc1 (configuration not stated)	i	-0.95
Cc1ccc2c(C)c(C(=O)NCC(C)(C)N3CCOCC3)oc2c1C	i	0.15
CCOc1cccc(C(=O)Nc2cccnc2)c1	i	0.45
CC(C)CCNC(=O)c1cc(-c2ccncc2)nc2ccc(S(=O)(=O)N3CCOCC3)cc12	i	2
O=C(COC(=O)c1cc(C(F)(F)F)cc(C(F)(F)F)c1)NCc1ccc(Cl)cc1	i	1.1
Cc1cccc(NC(=O)c2sc3nc(-c4ccccc4)cn3c2C)n1	i	-0.25
C/C(=N/NC(=O)c1ccc2c(c1)OCCO2)c1ccc([N+](=O)[O-])cc1	i	0.83
COc1cccc(CNc2nc(-c3cccnc3)nc3ccccc23)c1	i	2.8
CCCCn1c(SCC(=O)NCc2ccc(OC)c(C(=O)O)c2)nc2cc(S(N)(=O)=O)ccc21	i	0.63
Cc1cc(=O)oc(C)c1C(=O)OCC(=O)c1ccc(Cl)c(Cl)c1	i	-0.42
COc1ccc(CN(C(=O)c2cc3ccccc3oc2=O)C2CCS(=O)(=O)C2)cc1 (configuration not stated)	i	1.2
O=C(CN(c1ccc(Cl)c(Cl)c1)S(=O)(=O)c1ccccc1)N1CCc2ccccc2C1	-9.4*	-1.1*
Nc1nnc(C(F)(F)F)s1	i	1.6
COCCCNCCOCCOc1ccc(Cl)cc1C(C)(C)C	i	1.3
CC(C)c1ccc(OC(=O)NCCO)cc1	i	1.1
O=C1C2C(c3cccc(/C=C/c4ccccc4)c3)CC=CC2C(c2ccc(C(F)(F)F)cc2)N1Cc1ccccc1 (configuration not stated)	i	0.79
CCOc1nc(SCCOc2ccc(Cl)cc2Cl)nc(N(C)C)n1	i	-0.78
O=C(OC(C(=O)NCc1ccccc1)c1ccccc1)c1ccco1 (configuration not stated)	i	-0.07
C=CCn1c(SCC(=O)Nc2sccc2C(N)=O)nc2sc(C)c(C)c2c1=O	i	-0.24
COc1ccc(OCc2n[nH]c(=S)n2-c2ccc(C)cc2)cc1	i	2.1

Five compounds drawn at random from those above:
SMILES	KCNQ2 block	KCNQ2 block baseline
O=C1C2C(c3cccc(/C=C/c4ccccc4)c3)CC=CC2C(c2ccc(C(F)(F)F)cc2)N1Cc1ccccc1 (configuration not stated)	i	0.79
O=C(OC(C(=O)NCc1ccccc1)c1ccccc1)c1ccco1 (configuration not stated)	i	-0.07
COc1cccc(CNc2nc(-c3cccnc3)nc3ccccc23)c1	i	2.8
Cc1cc(=O)oc(C)c1C(=O)OCC(=O)c1ccc(Cl)c(Cl)c1	i	-0.42
CC(C)c1ccc(OC(=O)NCCO)cc1	i	1.1

Among those listed so far, 6 have an aryl thioether with sulfur outside any ring.
SMILES	KCNQ2 block	KCNQ2 block baseline
O=C(CSc1ncnc2ccccc12)c1ccco1	i	-2.1
CSc1nnc(C2CCN(CC(=O)Nc3ccccc3N3CCOCC3)CC2)n1C(C)C	i	-0.61
NS(=O)(=O)c1ccc(NC(=O)CSc2cn[nH]n2)cc1	i	-0.01
CCCCn1c(SCC(=O)NCc2ccc(OC)c(C(=O)O)c2)nc2cc(S(N)(=O)=O)ccc21	i	0.63
CCOc1nc(SCCOc2ccc(Cl)cc2Cl)nc(N(C)C)n1	i	-0.78
C=CCn1c(SCC(=O)Nc2sccc2C(N)=O)nc2sc(C)c(C)c2c1=O	i	-0.24

Following part.
SMILES	KCNQ2 block	KCNQ2 block baseline
CC(NC(=O)C1CCC(C(C)(C)C)CC1)C(c1ccccc1)N1CCOCC1 (configuration not stated)	i	1.5
CC(C)(C#N)c1cc(Cn2cncn2)cc(C(C)(C)C#N)c1	i	5.3
CC(=O)c1c(C)[nH]c(C(=O)OCC(=O)NCCc2ccc(Cl)cc2)c1C	i	-0.7
COc1cc(/C=C2\SC(=S)N(CC(=O)Nc3cccnc3)C2=O)cc(OC)c1OC	i	1.1
Cc1cccc(NC(=O)Cn2nc(-c3ccco3)ccc2=O)c1C	i	-2.1
CN1CCS/C1=C/C=C1\SC(=S)N(CC(=O)O)C1=O	i	45
Cc1ccc(S(=O)(=O)N2CCCCC2)cc1C(=O)NCc1ccncc1	i	0.85
CSCC[C@H](NC(=O)[C@H]1CC[C@H](CNC(=O)[C@@H](N)Cc2ccccc2)CC1)C(=O)O	i	0.9
CS(=O)(=O)Nc1ccc(C2=NN(C(=O)C3CCCCC3)C(c3cccs3)C2)cc1 (configuration not stated)	i	-1.2
O=C(NCc1ccccc1F)C1CCCN1S(=O)(=O)c1ccc(F)cc1 (configuration not stated)	i	-2.6
COc1ccc(-c2c(C#Cc3ccccc3)c3ccccc3n2C)cc1	i	2.8
COC(=O)c1ccc(NC(C)=O)o1	i	-0.62
COc1ccccc1CNn1c(-c2cccc(C)c2)nc2ccccc2c1=O	-7.6*	-0.41*
CCOC(=O)c1sc2nc(-c3ccco3)c3c(c2c1N)CC(C)(C)OC3	i	-0.23
CCCCC(CC)C(=O)N1CCN(C(=O)c2ccco2)CC1 (configuration not stated)	i	2.2

A different layout for some results above.
| SMILES | KCNQ2 block | KCNQ2 block baseline |
| --- | --- | --- |
| CSCC[C@H](NC(=O)[C@H]1CC[C@H](CNC(=O)[C@@H](N)Cc2ccccc2)CC1)C(=O)O | i | 0.9 |
| COc1cc(/C=C2\SC(=S)N(CC(=O)Nc3cccnc3)C2=O)cc(OC)c1OC | i | 1.1 |
| Cc1cccc(NC(=O)Cn2nc(-c3ccco3)ccc2=O)c1C | i | -2.1 |

New compounds follow.
SMILES	KCNQ2 block	KCNQ2 block baseline
Cc1ccc(OCCNC(=O)CN2C(=O)NC3(CCCC3)C2=O)cc1	i	-0.83
CC[C@H](C)/C=C(C)/C=C/C(=O)Cc1cc(O)c(C)c(O)c1C=O	i	1.6
CC(=O)Nc1ccc(NC(=O)CSc2ccc(-c3cccnc3)nn2)cc1	i	0.59
Cc1nnc(NC(=O)C2CCN(S(=O)(=O)c3ccc(Cl)cc3)CC2)s1	i	-1.2
COc1cccc(C2=NN(S(C)(=O)=O)C(c3cccs3)C2)c1 (configuration not stated)	i	-1.1
CC(C)c1ccc(O)c(NC(=S)NC(=O)CCc2ccccc2)c1	i	-0.21
Cc1nc(N2CCCC2)c2nnn(Cc3ccccc3Cl)c2n1	i	1.1
CC(C)(C)NC(=O)COc1ccc(CNCc2cccs2)cc1	i	-0.01
CCOC(=O)c1ccc(NC(=O)C(CC)(CC)C(=O)OCC)cc1	i	0.04
CC(=O)c1ccc(N2CCN(C(=O)/C=C/c3ccc(S(=O)(=O)N4CCOCC4)cc3)CC2)cc1	i	-0.13
Cc1cc(C)n(CC(O)COCc2ccccc2)n1 (configuration not stated)	i	0.39
Oc1ccccc1N=Cc1sc2ccccc2c1Cl	i	-0.02
C[C@H](NC(=O)C1CC(=O)N(c2ccc3c(c2)OCO3)C1)C(=O)NC1CCCCC1 (some centres not stated)	i	-2.2
CCc1nc(Sc2nnnn2-c2ccccc2)c2c3c(sc2n1)CCCC3	-5.9*	0.25*

An excerpt; count on the stated rates, not on these rows.
